# Screening data as filed in PubChem.
# NOMO-1 viab – STK33 inhibitor candidate reducing NOMO-1 cell viability | NOMO-1 AML viability, CellTiter-Glo luminescence, 72 h | inhibition, % (test concentration not listed) | 37,000 tested, 7.5% active | AID 2330;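 active means most replicates above 80%; inconclusive means exactly half above 80%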;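 further: wells of about 30 µL received 25 nL stock; 0% = median of vehicle wells and 100% = reference inhibitor level; the first replicate is given; inactives centre near 10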
# The depositor's hits bear a star; ? = inconclusive. An excerpt (hit frequency here may not be typical).
SMILES,NOMO-1 viab
C[C@@H]1CCCCO[C@H](CN(C)S(=O)(=O)c2cccs2)[C@@H](C)CN([C@H](C)CO)C(=O)c2cc(NC(=O)Cc3ccccc3)ccc2O1,22
CC1=C(C(=O)Nc2ccc(Cl)cc2)C(c2cccc(F)c2)n2nc(CCCO)nc2N1 (configuration not stated),-15
COc1ccc(NC(=O)N(C)C[C@@H]2OCCCC[C@@H](C)Oc3ccc(NC(=O)c4ccccc4)cc3C(=O)N([C@H](C)CO)C[C@@H]2C)cc1,15
C[C@@H]1CN([C@H](C)CO)C(=O)c2cccc(NS(=O)(=O)c3ccc(Cl)cc3)c2O[C@H]1CN(C)Cc1ccccc1,24
COc1ccc(S(=O)(=O)N(C)C[C@@H]2Oc3ccc(NS(=O)(=O)c4ccc(C)cc4)cc3C(=O)N([C@H](C)CO)C[C@@H]2C)cc1,17
Cc1noc(C)c1C(=O)NCCCN1CCCC1=O,-21
Cc1nn(CC(=O)NCc2ccccc2Cl)c(C)c1[N+](=O)[O-],-8
C[C@@H]1CN([C@H](C)CO)C(=O)c2cc(NS(=O)(=O)c3cn(C)cn3)ccc2O[C@@H]1CN(C)Cc1ccncc1,11
C[C@@H]1CN([C@H](C)CO)C(=O)Cc2cc(NS(=O)(=O)c3cccs3)ccc2O[C@@H]1CN(C)S(=O)(=O)c1ccccc1,22
CNC[C@@H]1Oc2c(NS(=O)(=O)c3c(C)noc3C)cccc2C(=O)N([C@H](C)CO)C[C@H]1C,6
Cc1noc(C)c1NC(=O)N(C)C[C@@H]1Oc2c(NC(=O)c3ccc(-c4nccs4)cc3)cccc2C(=O)N([C@H](C)CO)C[C@H]1C,-2
CCN1C(=O)C(=Cc2c(O)n(CC)c(=O)n(CC)c2=O)C(=O)N(CC)C1=O,0
O=C1C(=O)N(Cc2ccco2)C(c2cccc(O)c2)C1C(=O)c1ccco1 (configuration not stated),23
C[C@@H]1CN([C@@H](C)CO)C(=O)c2cc(NC(=O)Nc3ccc(F)cc3)ccc2O[C@@H]1CN(C)S(=O)(=O)c1ccc(F)cc1,47
C[C@@H]1CN([C@H](C)CO)C(=O)c2cc(NS(=O)(=O)c3ccc(Cl)cc3)ccc2O[C@@H]1CN(C)C(=O)NC1CCCCC1,11
C[C@@H]1CN([C@H](C)CO)C(=O)c2cc(NS(=O)(=O)c3ccc(F)cc3)ccc2O[C@H]1CN(C)Cc1ccc(Oc2ccccc2)cc1,114*
COc1ccc(S(=O)(=O)N(C)C[C@@H]2Oc3c(NC(=O)NC(C)C)cccc3C(=O)N([C@@H](C)CO)C[C@H]2C)cc1,18
CCn1c(SCC(=O)N2CCc3ccccc32)nnc1-c1ccco1,9
C[C@@H]1CN([C@@H](C)CO)C(=O)c2cccc(NC(=O)Nc3ccccc3)c2O[C@H]1CN(C)C(=O)Nc1ccc(C(F)(F)F)cc1,44
COc1cc(CO)cc(I)c1OCc1cccc([N+](=O)[O-])c1,37
Cc1noc(C)c1NC(=O)Nc1cccc2c1O[C@@H](CN(C)S(C)(=O)=O)[C@@H](C)CN([C@@H](C)CO)C2=O,102*
COc1ccc(S(=O)(=O)N(C)CC(=O)Nc2cc(Cl)ccc2OC)cc1C,14
Cc1cc(C(=O)Nc2cccc3c2O[C@H](CN(C)C(=O)NC(C)C)[C@@H](C)CN([C@H](C)CO)C3=O)n(C)n1,-14
COc1ccc(S(=O)(=O)N(C)C[C@H]2Oc3c(NC(=O)c4ccc(-c5nccs5)cc4)cccc3C(=O)N([C@H](C)CO)C[C@@H]2C)cc1,9
CC1CC(=O)c2cc(O)c(O)cc2C1 (configuration not stated),24

# The list continues:
SMILES,NOMO-1 viab
CCn1c(=O)c(C(=O)NCC2CCCO2)c(O)c2ccccc21 (configuration not stated),24
C[C@@H]1CN([C@H](C)CO)C(=O)Cc2cc(N(C)C)ccc2O[C@H]1CN(C)S(=O)(=O)c1ccc(Cl)cc1,1
CC(NC(=O)Cn1cc(Br)c([N+](=O)[O-])n1)c1ccccc1 (configuration not stated),22
C[C@@H]1CN([C@H](C)CO)C(=O)Cc2cc(NC(=O)Nc3ccccc3)ccc2O[C@@H]1CN(C)C,12
COc1ccc(NC(=O)N(C)C[C@H]2Oc3c(NC(=O)CCCCCC(=O)Nc4ccccc4N)cccc3C(=O)N([C@@H](C)CO)C[C@H]2C)cc1,54
C[C@H](CO)N1C[C@H](C)[C@@H](CN(C)Cc2ccc(Cl)c(Cl)c2)Oc2ccc(NC(=O)c3ccncc3)cc2C1=O,1
COc1cc2c(cc1NC(=O)CSc1nnc(N)s1)oc1ccccc12,20
COC(=O)C1=CO[C@@H](O[C@@H]2O[C@H](CO)[C@@H](O)[C@H](O)[C@H]2O)[C@H]2[C@@H]1[C@H](OC(=O)/C=C/c1ccc(O)cc1)C[C@]2(C)OC(C)=O,3
O=C(CC1(O)C(=O)Nc2ccc([N+](=O)[O-])cc21)c1ccccc1 (configuration not stated),15
CC1=NNC(=O)C1Cc1ccccc1 (configuration not stated),-35
C[C@@H]1CN([C@@H](C)CO)C(=O)c2cccc(NC(=O)Nc3ccc4c(c3)OCO4)c2O[C@H]1CN(C)CC1CCCCC1,83*
C[C@@H]1CN([C@@H](C)CO)C(=O)c2cc(NC(=O)Cc3ccccc3)ccc2O[C@H]1CN(C)Cc1ccc2c(c1)OCO2,4
COC(=O)C1=C(N)OC2=C(CCCC2=O)C1c1cccnc1 (configuration not stated),-14
Cc1ccc(S(=O)(=O)Nc2cccc3c2O[C@@H](CN(C)C(=O)Nc2cccc4ccccc24)[C@H](C)CN([C@H](C)CO)C3=O)cc1,19
C[C@@H]1CN([C@H](C)CO)C(=O)Cc2cc(NS(=O)(=O)c3ccc(Cl)cc3)ccc2O[C@H]1CN(C)Cc1ccc2c(c1)OCO2,55
NS(=O)(=O)c1ccc(CCNC(=O)c2cc(-c3cccs3)nc3ccccc23)cc1,46
C[C@@H]1CN([C@@H](C)CO)C(=O)c2cccc(NC(=O)C3CCCCC3)c2O[C@@H]1CN(C)Cc1ccc2c(c1)OCO2,12
C[C@@H]1CN([C@H](C)CO)C(=O)c2cccc(NC(=O)Nc3cccc4ccccc34)c2O[C@@H]1CN(C)C(=O)Nc1ccc(C(F)(F)F)cc1,73
Cc1cc(C(=O)NCCCn2ccnc2)cs1,5
C[C@@H]1CN([C@H](C)CO)C(=O)c2cccc(NS(=O)(=O)c3cn(C)cn3)c2O[C@H]1CN(C)Cc1ccc2c(c1)OCO2,17
C[C@H]1CN([C@@H](C)CO)C(=O)c2cc(NS(=O)(=O)c3cccs3)ccc2O[C@H]1CN(C)Cc1ccc(Cl)c(Cl)c1,44
C[C@H](CO)N1C[C@H](C)[C@@H](CN(C)CC2CCCCC2)Oc2c(NC(=O)C3CCCCC3)cccc2C1=O,96*
C[C@@H]1CN([C@@H](C)CO)C(=O)c2cccc(NS(=O)(=O)c3ccc(Cl)cc3)c2O[C@@H]1CN(C)S(=O)(=O)c1cccs1,85*
O=C(Nc1cccc2ccccc12)C1CCCN1S(=O)(=O)c1ccccc1 (configuration not stated),74
CC(C)CC1NC(=O)C(CC(C)C)N(O[C@@H]2O[C@H](COC(=O)CCC(=O)O)[C@@H](O)[C@H](O)[C@H]2O)C1=O (some centres not stated),119*

# Fetched by compound from the list above, 2 records:
SMILES,NOMO-1 viab
C[C@@H]1CN([C@H](C)CO)C(=O)Cc2cc(NS(=O)(=O)c3ccc(Cl)cc3)ccc2O[C@H]1CN(C)Cc1ccc2c(c1)OCO2,55
Cc1cc(C(=O)NCCCn2ccnc2)cs1,5

# Additional records:
SMILES,NOMO-1 viab
C[C@H](CO)N1C[C@H](C)[C@H](CN(C)S(=O)(=O)c2cccs2)Oc2ccc(NC(=O)Cn3cnnn3)cc2C1=O,12
COc1cc(C(=O)NCc2cccnc2)c([N+](=O)[O-])cc1OC,7
COc1cc(-c2nnc(SCC(=O)c3ccc(Cl)cc3)n2-c2ccccc2)cc(OC)c1OC,52
Cc1ccn2cc(-c3cccc(NS(=O)(=O)c4cccc([N+](=O)[O-])c4)c3)nc2c1,38
C[C@@H]1CN([C@H](C)CO)C(=O)c2cccc(NC(=O)c3cnccn3)c2O[C@H]1CN(C)C(=O)Nc1ccc(F)cc1,-4
COc1ccc(NC(=O)Nc2ccc3c(c2)CC(=O)N([C@H](C)CO)C[C@H](C)[C@H](CN(C)Cc2ccncc2)O3)cc1,-4
C[C@H](CO)N1C[C@H](C)[C@H](CN(C)S(C)(=O)=O)Oc2c(NC(=O)Nc3ccc4c(c3)OCO4)cccc2C1=O,31
NC(=O)CSc1nc(-c2ccccc2)nc2sc3c(c12)CCCC3,18
Cc1noc(C)c1NC(=O)N(C)C[C@@H]1Oc2c(NS(=O)(=O)c3cccs3)cccc2C(=O)N([C@H](C)CO)C[C@H]1C,-18
C[C@@H]1CN([C@H](C)CO)C(=O)Cc2cc(NS(=O)(=O)c3ccccc3)ccc2O[C@H]1CN(C)S(C)(=O)=O,-16
C[C@@H]1CN([C@@H](C)CO)C(=O)c2cc(NC(=O)CCCN(C)C)ccc2O[C@H]1CN(C)Cc1ccc2c(c1)OCO2,0
Cc1c(CCC(=O)O)c(=O)oc2cc(OCc3cccc(Cl)c3)ccc12,20
C[C@@H]1CCCCO[C@@H](CN(C)CC2CC2)[C@@H](C)CN([C@H](C)CO)C(=O)c2cc(NC(=O)CCCN(C)C)ccc2O1,8
O=C(O)c1cccc(CSc2nc(-c3ccc(Cl)cc3)cc(C(F)(F)F)n2)c1,-17
O=C(NCc1ccco1)C1CCC(N2C(=O)C3C4CCC(C4)C3C2=O)CC1 (configuration not stated),-7
C[C@@H]1CN([C@@H](C)CO)C(=O)Cc2cc(NS(C)(=O)=O)ccc2O[C@@H]1CN(C)S(=O)(=O)c1ccc(Cl)cc1,2
COc1ccc(NC(=O)COc2ccc(CO)cc2OC)cc1,19
CCN1C(=C(C#N)C#N)C=Cc2ccccc21,24
Cc1sc(/N=C/c2ccccc2O)c(C#N)c1C,32
C[C@@H]1CN([C@@H](C)CO)C(=O)c2cccc(NS(=O)(=O)c3ccccc3)c2O[C@H]1CN(C)C,9
C[C@H](CO)N1C[C@H](C)[C@@H](CN(C)Cc2ccc3c(c2)OCO3)Oc2c(NC(=O)CCCCCC(=O)Nc3ccccc3N)cccc2C1=O,123*
COc1ccc(Nc2nc(N)nc(CSc3nccn3C)n2)cc1,-2
CC(C)NC(=O)N(C)C[C@H]1Oc2ccc(NC(=O)Cc3cn(C)c4ccccc34)cc2C(=O)N([C@H](C)CO)C[C@@H]1C,19
CC(C)NC(=O)Nc1cccc2c1O[C@H](CN(C)S(=O)(=O)c1cn(C)cn1)[C@H](C)CN([C@H](C)CO)C2=O,-12
Cc1cc(C(=O)Nc2cccc3c2O[C@@H](CN(C)C(=O)Nc2ccccc2)[C@@H](C)CN([C@H](C)CO)C3=O)n(C)n1,4

# (continued)
SMILES,NOMO-1 viab
Cc1cc(C(F)(F)F)c2c(n1)sc1c(=O)[nH]c(C)nc12,-12
C[C@H]1CN([C@@H](C)CO)C(=O)c2cc(NS(C)(=O)=O)ccc2O[C@@H]1CN(C)S(C)(=O)=O,16
Cn1c(SCC(=O)Nc2cccc(O)c2)nnc1-c1ccco1,12
COc1ccc(NC(=O)N(C)C[C@H]2Oc3c(NS(=O)(=O)c4cccs4)cccc3C(=O)N([C@H](C)CO)C[C@H]2C)cc1,-4
Cc1c(Cl)c(C(F)(F)F)nn1CCCNC(=O)Nc1cccc([N+](=O)[O-])c1,57
C[C@@H]1CN([C@@H](C)CO)C(=O)Cc2cc(N(C)C)ccc2O[C@@H]1CN(C)S(=O)(=O)c1ccc(Cl)cc1,23
CC(c1ccco1)N(C(=O)c1sc2ccccc2c1Cl)c1ccccn1 (configuration not stated),44
C[C@H]1CN([C@@H](C)CO)C(=O)c2cccc(NS(=O)(=O)c3ccccc3)c2O[C@@H]1CN(C)Cc1ccc(C(=O)Nc2ccccc2N)cc1,?
COc1ccc2ccc(=O)oc2c1CC=C(C)C,67
C[C@@H]1CN([C@H](C)CO)C(=O)Cc2cc(NC(=O)Cc3cn(C)c4ccccc34)ccc2O[C@H]1CN(C)C(=O)Nc1ccc(F)cc1,1
CC(C)(C)NC(=O)CSc1nnc(-c2ccccc2Cl)n1-c1ccccc1,14
Nc1ccc(C(=O)CC(=O)Nc2ccc(Cl)cc2)cc1,30
COCc1cc(=O)n2[nH]c(Nc3cc(Cl)ccc3C)nc2n1,24
COc1ccc(S(=O)(=O)N(C)C[C@@H]2Oc3ccc(NC(=O)Cn4cnnn4)cc3CC(=O)N([C@@H](C)CO)C[C@@H]2C)cc1,-6

# 14 structures out of the list, arranged by molecular weight, descending.
SMILES,NOMO-1 viab
C[C@H]1CN([C@@H](C)CO)C(=O)c2cccc(NS(=O)(=O)c3ccccc3)c2O[C@@H]1CN(C)Cc1ccc(C(=O)Nc2ccccc2N)cc1,?
C[C@@H]1CN([C@H](C)CO)C(=O)Cc2cc(NC(=O)Cc3cn(C)c4ccccc34)ccc2O[C@H]1CN(C)C(=O)Nc1ccc(F)cc1,1
COc1ccc(NC(=O)N(C)C[C@H]2Oc3c(NS(=O)(=O)c4cccs4)cccc3C(=O)N([C@H](C)CO)C[C@H]2C)cc1,-4
COc1ccc(S(=O)(=O)N(C)C[C@@H]2Oc3ccc(NC(=O)Cn4cnnn4)cc3CC(=O)N([C@@H](C)CO)C[C@@H]2C)cc1,-6
CC(C)NC(=O)N(C)C[C@H]1Oc2ccc(NC(=O)Cc3cn(C)c4ccccc34)cc2C(=O)N([C@H](C)CO)C[C@@H]1C,19
Cc1cc(C(=O)Nc2cccc3c2O[C@@H](CN(C)C(=O)Nc2ccccc2)[C@@H](C)CN([C@H](C)CO)C3=O)n(C)n1,4
CC(C)NC(=O)Nc1cccc2c1O[C@H](CN(C)S(=O)(=O)c1cn(C)cn1)[C@H](C)CN([C@H](C)CO)C2=O,-12
Cc1c(Cl)c(C(F)(F)F)nn1CCCNC(=O)Nc1cccc([N+](=O)[O-])c1,57
CC(C)(C)NC(=O)CSc1nnc(-c2ccccc2Cl)n1-c1ccccc1,14
Cn1c(SCC(=O)Nc2cccc(O)c2)nnc1-c1ccco1,12
COCc1cc(=O)n2[nH]c(Nc3cc(Cl)ccc3C)nc2n1,24
Cc1cc(C(F)(F)F)c2c(n1)sc1c(=O)[nH]c(C)nc12,-12
Nc1ccc(C(=O)CC(=O)Nc2ccc(Cl)cc2)cc1,30
COc1ccc2ccc(=O)oc2c1CC=C(C)C,67
